# Marburg entry inh: inhibitors of Marburg virus binding or cell entry; Marburg virus pseudotyped entry inhibition, cell reporter; control for the full effect not named in the record; about a third of the inactives were read at about 46 µM; Potency, µM (highest dose often 37.8 µM), for the others: at the top dose activity change, negative = inhibition, hits mostly inhibitors; actives 1.8% (n = 300,000); AID 540276; active = well fitted inhibition curve with a large enough effect; inconclusive = small, poorly fitted or top-dose-only effect, or effect the other way; inactive = flat fitted curve, though single readings scatter; tested in HEK293 cells; about a fifth of its hits are not listed in these tables; note: % is set by controls: 0 for no effect and ±100 for the full control effect; luciferase read-out
# Cruzain inh Det: blocks cruzain activity in presence of Triton detergent; P25779; purified cruzain, Z-FR-AMC fluorescence, 0.01% Triton; Potency, µM, for the others: max response, negative = inhibition, usual class: inhibitors; actives 0.43% (n = 200,000); AID 1478; active = well fitted curve in the direction sought with a large enough effect; inconclusive = small, poorly fitted or top-dose-only effect, or another doubt; inactive = no such curve, though single readings can be large; an effect the other way counts as inactive or inconclusive;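 note: plate controls were neutral wells for no effect and buffer without enzyme for full effect; nearly all actives have a fitted effect of over 40% in size; top concentration of the series not given in the record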
# Target sequence (P25779 123-467 limits assumed): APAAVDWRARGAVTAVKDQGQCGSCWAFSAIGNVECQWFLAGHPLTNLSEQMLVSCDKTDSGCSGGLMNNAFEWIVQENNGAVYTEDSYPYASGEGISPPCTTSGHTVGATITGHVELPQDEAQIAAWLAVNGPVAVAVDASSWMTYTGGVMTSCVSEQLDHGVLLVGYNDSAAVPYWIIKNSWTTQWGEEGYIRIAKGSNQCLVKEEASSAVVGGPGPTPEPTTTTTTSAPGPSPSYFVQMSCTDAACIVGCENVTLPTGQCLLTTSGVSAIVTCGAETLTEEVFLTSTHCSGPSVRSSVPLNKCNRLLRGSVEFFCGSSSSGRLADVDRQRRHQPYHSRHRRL
#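 Sodium acetate buffer (100 mM, pH 5.5) containing 5 mM DTT and 0.01% Triton X-100 hosted 1.5 nM cruzain and test compound for 15 min at room temperature. Cleavage of 2 uM Z-FR-AMC was then tracked by fluorescence.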
# SARS PLP yeast: blocks SARS-CoV papain-like protease in a yeast assay. actives 0.19% (n = 330,000). S. cerevisiae expressing SARS-CoV PLpro, growth rescue; control for the full effect not named in the record. Potency, µM (top dose mostly 32.9 µM), for inactives: top-dose activity, positive = growth rescue; note: 0% is about no effect; nearly all actives have a fitted effect of over 55% in size; growth read by luminescence after 48 h
# Cruzain noTriton: inhibitors of Trypanosoma cruzi cruzain without detergent. Potency, µM, for inactives: max response, negative = inhibition, hits mostly inhibitors. P25779. actives 2.3% (n = 200,000). purified cruzain, Z-FR-AMC fluorescence, no detergent; active = well fitted curve in the direction sought with a large enough effect; inconclusive = small, poorly fitted or top-dose-only effect, or another doubt; inactive = no such curve, though single readings can be large; an effect the other way counts as inactive or inconclusive;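 note: plate controls were enzyme without inhibitor for no effect and buffer without enzyme for full effect; nearly all actives have a fitted effect of over 40% in size; top concentration of the series not given in the record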
#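 Purified cruzain at 1.5 nM, pre-incubated 15 min with compound at room temperature in 100 mM sodium acetate pH 5.5, 5 mM DTT, 0.00005% Triton X-100. Reaction started with 2 uM Z-FR-AMC; AMC fluorescence increase over 60 s gives rate.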
# LASV entry inh: blocks Lassa virus binding to or entry into cells. Lassa virus pseudotype entry inhibition, cell reporter; control for the full effect not named in the record. Potency, µM (highest dose often 37.9 µM), for the others: at the highest dose activity change, negative = inhibition, most hits filed as inhibitors. actives 1.2% (n = 300,000). AID 540256; active means well fitted inhibition curve with a large enough effect; inconclusive means small, poorly fitted or top-dose-only effect, or effect the other way; inactive means flat fitted curve, though single readings scatter; tested in HEK293 cells; note: % is set by controls: 0 for no effect and ±100 for the full control effect; nearly all actives have a fitted effect of over 50% in size; luciferase read-out
# RE007 growth inh: less growth of the S. pombe RE007 Vpr strain | S. pombe RE007 Vpr strain, BacTiter-Glo ATP luminescence, 24 h; control for the full effect not named in the record | Potency, µM (top dose mostly 92.2 µM), for inactives: at the highest dose activity change, negative = less growth | actives 0.21% (n = 360,000); active = well fitted falling curve with a large enough effect; inconclusive = small, poorly fitted or top-dose-only effect; inactive = no such curve, though single readings can be large or run the other way;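 note: % is set by controls: 0 for no effect and ±100 for the full control effect; nearly all actives have a fitted effect of over 50% in size; the assay follows cell death caused by Vpr and the record does not say whether a fall means rescue or toxicity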
#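 Fission yeast RE007 carrying one integrated HIV-1 vpr copy, seeded at OD 0.01 in PMG+AL medium with 23 nL pinned compound. Grown 24 h at 30 degrees; viability read by BacTiter-Glo luminescence after 5 min.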
# NS1 function inh: inhibitors of influenza NS1 protein function. S. cerevisiae slowed by influenza A NS1, growth recovery by OD600. Potency, µM (top dose mostly 46.1 µM), for the others: top-dose activity, positive = more growth. actives 0.4% (n = 270,000); note: actives are rising curves; nearly all actives have a fitted effect of over 50% in size
#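 Read-out: OD600 growth recovery of NS1-expressing budding yeast. Cells grown overnight at 30C in -URA glucose medium, washed, resuspended and diluted 1:100 in 2% galactose assay medium, pH 6.0. Same strain lacking NS1 served as positive control.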
# StopGo reporter: FMDV 2A StopGo reporter, luciferase signal | human cells with a luciferase reporter of 2A StopGo recoding; control for the full effect not named in the record | Potency, µM (series often up to 57.9 µM), without a hit: top-dose signal change, negative = less light | actives 1.2% (n = 410,000); active = well fitted falling curve with a large enough effect; inconclusive = small, poorly fitted or top-dose-only effect; inactive = no such curve, though single readings can be large or run the other way; tested in HEK293T cells; note: % is set by controls: 0 for no effect and ±100 for the full control effect; nearly all actives have a fitted effect of over 45% in size; luciferase light after 4 h
# The depositor's hits bear a star; ? = inconclusive; / = no result given; & = joins results of further samples; [ ] = remark or other dose. Unless noted, calls come from the whole dose curve; as a rule, active means well fitted rising curve with a large enough effect; inconclusive means small, poorly fitted or top-dose-only effect; inactive means no such curve, though single readings can be large or run the other way. Potency is the fitted concentration of half-maximal effect.
SMILES | Marburg entry inh | Cruzain inh Det | SARS PLP yeast | Cruzain noTriton | LASV entry inh | RE007 growth inh | NS1 function inh | StopGo reporter
CC(NC(=O)CCc1nnc(CCCc2ccccc2)o1)c1ccccc1 (stereo not given) | ? | / | 1% | / | -2% | 18% | -8% | 49%[activator]
Cc1ccc(CNc2ncnc3cc(Cl)ccc23)cc1 | / | / | -4% | / | / | 1% | -53% | ?
CCCc1nc2oc3c(=O)[nH]cnc3c2c2c1COC(C)(C)C2 | 0%[46.1 µM] | / | 1% | / | -13%[46.1 µM] | 6% | 3% | -13%
O=C(NC1CC1)C(=O)c1c(-c2ccccc2)[nH]c2ccccc12 | 11% | -2.4% | -18% | 2% | 10% | -4% | 7% | -10%
Cn1nc(C(F)(F)F)c(CO)c1Sc1ccc(F)cc1 | -9%[46.1 µM] | / | 0% | / | 7% | 9% | -2% | -14%
CC1CCCC(C)N1C(=O)c1cccc2c1-c1ccccc1/C2=N/O (stereo not given) | ? | -7.2% | 1% | -10% | 14% | 24% | 4%[9.22 µM] | 37%[activator]
Cc1cc(C)cc(NC(=O)N2CCN(S(C)(=O)=O)CC2)c1 | 6%[46.1 µM] | / | 0% | / | 1% | -10% | 2% | -9%
Cc1ccc(SCc2ccc(C(=O)Nc3ccccc3C(=O)NC(C)C)cc2)cc1 | ? | -4.4% | -21% | -6% | -21% | 0% | 9% | -18%
O=C1C(=O)N(c2ccccc2)c2ccccc21 | -1% | 0.1% | -15% | -3% | 0% | 4% | -4% | -10%
COc1ccc(CSC2=C(C#N)C(=O)NC3(CCCCC3)S2)cc1 | / | 2.7% | / | -1% | / | 11% | -6% | 0%
CCC(C)NC(=O)CCSc1nc(-c2ccc3c(c2)OCO3)cc(C(F)(F)F)n1 (stereo not given) | 16%[46.1 µM] | -0.3% | / | 12% | 16%[46.1 µM] | / | / | -28%
CC1CCN(C(=O)CNC(=O)c2ccc(Cl)cc2Cl)CC1 | 0% | 5.1% | 6% | 9% | 0% | 2% | 0% | 60%[activator]
COC(=O)N/N=C/c1cc([N+](=O)[O-])cc(Br)c1O | -3% | -13% | -66% | -6% | 1% | -20% | -36% | 0%
CCN(C(=O)C1=COCCO1)c1nc2c(C)cccc2s1 | ? | / | -13% | / | ? | 5% | / | 7%
Cn1c(=NC(=O)CS(=O)(=O)c2ccccc2)sc2ccccc21 | -14% | / | 0% | / | 4% | 10% | / | 39%[activator]
CC(C)N1CCN(Cc2ccc(-c3ccccc3Cl)o2)CC1CCO (stereo not given) | / | / | 0% | / | / | -21% | 3% | 14%
O=C(CN1CCN(S(=O)(=O)c2ccccc2)CC1)NC(=O)NCc1ccccc1 | 2% | 13% | 8% | 1% | -3% | -18% | 4% | -17%
Cc1c(C(=O)OCC(O)=C(C#N)c2nc3ccccc3[nH]2)oc2ccc(Br)cc12 | ? | / | / | / | 10%[46.1 µM] | 4% | / | -16%
O=C(NCC(=O)N1CCN(C(=O)c2ccccc2)CC1)c1ccccc1 | ? | / | -9% | / | 1% | -20% | / | -1%
N#Cc1nc(-c2ccccc2)oc1NCC1CCCO1 (stereo not given) | -3% | -9.7% | -9% | 17% | -5% | -20% | 0% | 10%
c1cc2c(cc1Cn1cnnn1)OCO2 | ? | 5.5% | -2% | -11% | -2% | -7% | 7% | 7%
COc1cccc(C2CC(c3ccc(Cl)cc3)Nc3nc(N)nn32)c1 (stereo not given) | -2% | -6.7% | 22% | 16% | 14% | 10% | 7.1µM* | -25%
COc1ccc(N2CCN(C(CNC(=O)C(=O)NCCc3ccccc3)c3cccnc3)CC2)cc1 (stereo not given) | / | -6.6% | / | 15% | ? | / | / | -24%
CCN(CC)C(=O)N[C@@H]1C[C@@H]2c3cccc4[nH]cc(c34)C[C@H]2N(C)C1 | ? | ? | / | ? | / | / | ? | /
CCn1ncc(Cl)c1C(=O)NC(=S)Nc1c(C)cc(C)cc1[N+](=O)[O-] | -39% | -10% | -3% | -9% | ? | ? | 11% | -10%
Cc1ccc(-c2cc(-c3ccc(C)cc3)[n+](C)o2)cc1 | 3.5µM* | -7.4% | -6% | -11% | 12µM* | -1% | 1% | ?
COc1ccc(C(=O)NNC(=S)NC(=O)c2ccccc2)cc1 | ? | / | -15% | / | ? | -6% | -152% | -21%
CCn1c(SCC(=O)Nc2ccc3c(c2)OCO3)nnc1-c1cnccn1 | 29% | 0.8% | 12% | 2% | 0% | -5% | -7% | 23%
COc1ccc(CN(CC(=O)NCc2ccc3c(c2)OCO3)C(=O)c2csnn2)cc1 | -4%[46.1 µM] | / | 8% | / | -3% | -6% | -5% | -2%
C#CC1(O)CC(C)N(C)C(C)C1 (stereo not given) | -2% | 2.5% | 3% | 2% | 24% | 19% | 7% | 9%
Cc1cccc(C)c1NC(=O)NN=C1CCCCC1 | -3%[46.1 µM] | / | 0% | / | -2%[46.1 µM] | -1% | -4% | -8%
Cn1cccc1CNC(=O)Nc1ccc(Cl)c(Cl)c1 | 2% | -8.1% | -5% | ? | ? | -15% | -2% | 0%
O/N=C/c1ccc(OCc2ccccc2F)c(Cl)c1 | ? | -9.4% | -20% | -13% | ? | -29% | -11% | -5%
CCCn1nc(C(=O)Nc2nnc(C3CC3)s2)c2ccccc2c1=O | 2% | / | -6% | / | -1% | -5% | / | ?
CCC(=O)Nc1ccc(-c2nc3ccccc3c(=O)o2)cc1 | -33%[46.1 µM] | / | -1% | / | ? | -4% | / | 24%
CC(=O)Nc1cccc(C(=O)OC(C)C(=O)NCc2ccc3c(c2)OCO3)c1 (stereo not given) | 2% | / | 1% | / | 18% | 3% | / | -26%
[2H]C(CCOS(N)(=O)=O)c1ccc(C(C)(C)C)cc1 (stereo not given) | / | / | -17% | / | / | 18% | -36% | 0%
Fc1ccc(Cl)cc1/C=N/n1cnnc1SCc1ccccc1 | -17% | -1.7% | 0% | 10% | -14% | -2% | 4% | 21%
CC(=O)C1=C(c2ccc(Cl)cc2)N(C(C)=O)n2c(nnc2C2CCCCC2)S1 | / | -1.3% | / | -1% | ? | / | / | ?
O=C1CCC([N+](=O)[O-])C(c2ccc(Cl)cc2Cl)N1 (stereo not given) | 6% | 2.3% | -1% | -6% | 22% | -9% | 9% | -24%
CCOc1ccc(C(=O)COC(=O)c2cc([N+](=O)[O-])ccc2N2CCOCC2)cc1 | ? | / | -8% | / | ? | 5% | / | ?
N#Cc1c(-c2ccc([N+](=O)[O-])cc2)nc2n(c1=O)CCS2 | / | / | 1% | / | / | 10% | 5% | 0%
CC(C)(C)NC(=O)NC(=O)COC(=O)c1cccc(S(=O)(=O)N2CCCCC2)c1 | -2% | -4.0% | -25% | -1% | 8% | -11% | -4% | -21%
OCC[C@H]1C[C@H](O)[C@@H](O)[C@@]2(CCCCO2)O1 | 4% | 3.2% | 5% | -3% | 6% | -12% | -8% | -4%
COC(=O)C1=C(C)OC(N)=C(C#N)C1c1cc(C)sc1C (stereo not given) | 13%[46.1 µM] | -0.8% | 9% | -7% | 0% | -17% | 16% | -16%
Cc1ccc2[nH]c(CCN(C)C)c(CC#N)c2c1 | ? | 2.7% | 3% | -13% | 0% | -8% | 4% | 5%
COc1ccccc1S(=O)(=O)Cc1ccc(C(=O)NC(C)c2ccc3c(c2)OCCO3)o1 (stereo not given) | ? | -1.0% | 1% | 25% | 6% | 11% | 1% | -18%
CC1=C(C(=O)O)N2C(=O)C(NC(=O)c3ccccc3Cl)C2SC1 (stereo not given) | 15%[46.1 µM] | / | 2% | / | 2%[46.1 µM] | -6% | 1% | 5%
C=CCNc1nc2ccccc2nc1NS(=O)(=O)c1cccs1 | 16% | -7.2% | -10% | 8% | 14% | -17% | -45% | 9%
CCNc1nc(NCC)n2c(SCC(=O)NCC3CCCCC3)nnc2n1 | 22%[46.1 µM] | 2.5% | ? | 8% | -27% | 7% | 6% | -6%
Cc1ccc(NC(=O)c2oc3ccc(S(=O)(=O)N4CCC5(CC4)OCCO5)cc3c2C)cc1C | ? | -0.9%&-7.7% | ? | 3% | ? | 9% | 14% | ?
COc1cc(C(=O)Oc2ccccc2OC(=O)c2cc(OC)c(OC)c(OC)c2)cc(OC)c1OC | ? | / | / | / | -12%[46.1 µM] | -1% | / | -6%
Cc1ccc(NC(=O)COC(=O)COc2cccc3c2OC(C)(C)C3)c(C)c1 | -10% | / | -17% | / | 1% | -1% | / | -4%
O=C(NC(Cc1ccccc1)c1ccc2c(c1)OCCCO2)c1ccccc1 (stereo not given) | 7% | -8.5% | -1% | -13% | -2% | 12% | 0% | 14%
COc1ccc(-n2c(=O)c3ccc(C(=O)NCc4ccc(C)cc4)cc3n(Cc3ccc(C)cc3)c2=O)cc1 | 9%[46.1 µM] | -1.7% | / | -6% | -1%[46.1 µM] | / | / | 32%[activator]
COc1ccc(N2CCN(S(=O)(=O)CCNC(=O)/C=C/c3ccc4c(c3)OCO4)CC2)cc1 | 5% | / | 3% | / | -21% | 6% | / | -23%
CCn1cc(C2=NC(C)(C)CO2)c2ccccc21 | 1% | 3.4% | -1% | 4% | 2% | 2% | -2% | 25%
Cc1ccc(SCc2ccc(C(=O)Nc3cc([N+](=O)[O-])ccc3C)cc2)cc1 | ? | -0.5% | -7% | -7% | -19% | 11% | -21% | /
Cc1cccc(-n2c(-c3ccoc3C)n[nH]c2=S)c1 | 24% | 0.4% | 12% | 5% | 11% | 1% | -6% | -23%
CN(C)CCN(C(=O)c1ccc2c(c1)CCCC2)c1nc2c(F)cccc2s1 | -7% | / | ? | / | -7% | -4% | -10% | 27%
Cc1cccc(OCC(=O)Nc2ccc(-c3nc4cc(C)ccc4o3)c(O)c2)c1 | / | -1.0% | / | 11% | 8%[46.1 µM] | / | / | 23%
COc1ccc(Cn2c(-c3ccc(OC)cc3)nc3ccccc32)cc1 | 17% | -6.0% | -32% | 0% | 3% | -13% | -5% | -9%
CC1CCN(C(=O)Cn2cc(C#N)c3ccccc32)CC1 | -8% | -1.4% | -1% | 4% | 13% | 7% | -3% | 14%

# Assay outcomes deposited in PubChem BioAssay by National Center for Advancing Translational Sciences (NCATS).
